Screening results: PubChem BioAssay, ICCB-Longwood Screening Facility, Harvard Medical School
RVFV N-RNA inh = blocks Rift Valley Fever Virus nucleoprotein binding to RNA | P21700 | RVFV N-RNA binding, fluorescence polarization; stronger effect = lower value | % bound, % (concentration not given with the values) | 20,000 compounds, 0.1% hits;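 active = between 0 and 58% in either replicate with normal brightness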;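 note: 100 nL library stock added to about 12 µL; 100% = protein and probe without compound and 0% = probe alone; numbers are from one replicate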
Target sequence (P21700 whole entry, looked up): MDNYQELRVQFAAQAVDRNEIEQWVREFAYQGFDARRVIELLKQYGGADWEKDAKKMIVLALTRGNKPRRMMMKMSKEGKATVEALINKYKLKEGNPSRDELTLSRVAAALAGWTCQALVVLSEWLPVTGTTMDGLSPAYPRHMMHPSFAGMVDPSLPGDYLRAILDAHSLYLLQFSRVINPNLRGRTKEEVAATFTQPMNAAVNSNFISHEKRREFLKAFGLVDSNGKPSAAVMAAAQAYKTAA
The depositor's hits bear a star; & = joins results of further samples. An excerpt, so the mix of outcomes need not match the whole.

SMILES	RVFV N-RNA inh
O=C(Cc1cccs1)NCCc1cnc[nH]1	94
COc1cc(/C=C2\Oc3ccccc3C2O)cc(Cl)c1OC (stereo not drawn)	94
CC(=O)Oc1cccc(C(=O)NC2CCCCC2)c1	93
c1ccc(CN2CCN(Cc3ccccc3)C2c2ccc[nH]2)cc1	97
Cc1nc(N)[nH]c(=O)c1Oc1cccc(C(F)(F)F)c1	95
COC(=O)C1(c2ccc(OC)c(OC)c2)CCCC1	81
COC(=O)c1ccc(CSc2ncnc3c2cnn3-c2ccc(C)cc2C)o1	98
CC(CO)(CO)NC(=O)NC1CCCCC1	94
CC(C)(C)NC(=O)NCc1ccco1	90
CCC(Sc1nnc2c3ccccc3n(C(C)C)c2n1)C(=O)Nc1nc2ccccc2s1 (stereo not drawn)	101
Cc1cc(C)n(-c2cccc(Cl)c2C#N)n1	102
COc1ccccc1-c1ccc(SCC#N)nn1	84
COC(=O)c1cc2c(ccc3ccccc32)oc1=O	95
CCOc1ccc(N2CC(=O)SC2=S)cc1	94
Cc1sc(-c2c(F)cccc2F)nc1O	91
O=c1c2ccccc2[nH]c(=S)n1CCCn1ccnc1	109
O=C(NCCc1ccccc1)C(=S)N1CCCC1	94
CC(=O)Nc1ccc(SC(F)(F)C(F)(F)C(F)(F)F)cc1	96
CCc1sc(C(=O)Nc2cccc(Cn3cccn3)c2)cc1Br	94
CCC(c1c(N)[nH]c(=S)[nH]c1=O)c1c(N)[nH]c(=S)[nH]c1=O	95
C/C(=N/Nc1nc2ccccc2s1)C1=C(O)c2ccccc2C1=O	98
CCS(=O)(=O)c1ccc2nc(SCC(=O)n3c4c(c5ccccc53)CCCC4)oc2c1	94
C[C@]12N[C@H](Cc3ccccc31)c1ccccc12	92
O=c1cnn([C@@H]2O[C@H](CO)[C@@H](O)[C@H]2O)c(=O)[nH]1	102
CNC(=O)c1oc2c(c1C)C(=O)CC(C)(C)C2	95
CC(C)C(=O)NC(=S)Nc1ccc(N2CCCCC2)cc1	101
N[C@H](CCCP(=O)(O)O)C(=O)O	102
N=C1C(c2ccccc2)=C(O)CN1NC(=O)c1ccccc1	95
CN(C)c1ccc(N)cc1C(=O)O	100
Cn1c(=S)[nH]c2ccc(Br)cc2c1=O	102
Cc1nnc(NC(=O)CSc2nnc(CNC(=O)COc3ccc(Cl)cc3)n2-c2ccccc2)s1	98
CCSc1ccc(-c2ccccc2)nn1	93
O=C(O[C@@H]1Cc2c(O)cc(O)cc2O[C@@H]1c1cc(O)c(O)c(O)c1)c1cc(O)c(O)c(O)c1	97
Cc1cc(C)c2nc(C(F)(F)F)nc(N3CCN(Cc4ccccc4)CC3)c2c1	97
CCOC(=O)Cn1c(=NC(=O)c2ccco2)sc2c(C)cc(C)cc21	97
CCn1nc(C)cc1C(=O)n1nc(C)c(Sc2nccn2C)c1C	94
C=CCSc1nnc(-c2c[nH]c3ccccc23)n1CC	94
CC(C)CC(NP(=O)(O)O[C@@H]1O[C@@H](C)[C@H](O)[C@@H](O)[C@H]1O)C(=O)NC(Cc1c[nH]c2ccccc12)C(=O)O (stereo partly drawn)	92
O=c1c2ccccc2nc2sc3ccccc3n12	95
N/C(CN1CCSCC1)=N\OC(=O)c1ccccc1F	93
COc1ccc(-c2noc(-c3ccccc3C(=O)N3CCCCC3)n2)cc1OC	97
COC(=O)c1c(NC(=O)c2cc3ccccc3o2)sc2c1CCCC2	107
COC(=O)c1nnn(-c2nonc2N)c1CN1C(=O)c2ccccc2C1=O	89
CN1C(=O)/C(=N\N2C(=O)CSC2=S)c2ccccc21	92
Cc1ccc(-c2cc(Cc3cccnc3)c(=O)[nH]n2)cc1	93
COC(=O)C1=C(C)NC(=S)NC1/C=C/c1ccccc1 (stereo not drawn)	96
CCc1ccc(CN2CCC(O)CC2)cc1	99
O=C(Cc1ccccc1)Nc1cccc(-c2ccc(N3CCCC3)nn2)c1	86
CC1=NC=CC2NC(=O)C(C#N)=CC12 (stereo not drawn)	95
O=C1N(c2ccccc2)CCN1c1ccccc1	95
COc1ccc(/C=C/C(=O)N(CC(C)C)CC(C)C)cc1	103
O=C(Nc1ccccc1)Nc1ccc(OC(F)F)cc1	96
O=C(Oc1cc(=O)oc2ccccc12)c1ccccc1	94
CC(=O)N1CCN(c2ccc(OC[C@H]3CO[C@](Cn4ccnc4)(c4ccc(Cl)cc4Cl)O3)cc2)CC1	95&108&96
O=C1CCCN1CC#CCN1CCCC1	93&93
CCN1CCN(Cc2ccc(-c3ccccc3)cc2)CC1	90
O=S(=O)(NCc1csc(-c2cccnc2)n1)c1ccc(Cl)s1	94
O=C(c1ccc(OCCN2CCCCC2)cc1)c1c(-c2ccc(O)cc2)sc2cc(O)ccc12	87&92&97
O=C(CSc1nnc2scc(-c3ccccc3)n12)c1ccc2c(c1)OCCO2	90
CCC1Oc2nc(SC)nnc2-c2ccccc2N1C(=O)c1ccccc1 (stereo not drawn)	90
(more compounds)
SMILES	RVFV N-RNA inh
CCOc1ccc(NC(=O)c2ccc(-n3cnnc3)cc2)cc1	82
CC(C)(C)C(=O)/C(C#N)=C/Nc1cccc2nsnc12	94
CCOC(=O)c1cc2ccc(OC(=O)c3ccco3)cc2oc1=O	89
CNC(=O)CN1CCCC(c2nc3ccccc3[nH]2)C1 (stereo not drawn)	98
Cc1cccc(C)c1OCCCn1ccnc1	89
CN[C@H](CC(=O)O)C(=O)O	95
CCOc1ccc(NC(=O)c2ccc(SC)cc2OC)cc1	98
CN(C)S(=O)(=O)c1ccc(C(=O)NCc2n[nH]c(=O)c3ccccc23)cc1	100
CCN(CC(=O)Nc1ccccc1)c1ccccc1	98
CC(C)NC[C@H](O)COc1ccc(CC(N)=O)cc1	95
O=C(Sc1ccc(Cl)cc1)c1cnc2n(c1=O)CCS2	90
O=C1N[C@H](C(=O)O)CS1	95
O=c1c(-c2ccccc2)c1-c1ccccc1	94
O=C(CC1CCCC1)NCCS(=O)(=O)N1CCN(c2ccccc2)CC1	99
Cc1cc2c3c(c1)C1(C(=O)N3C(C)(C)CC2C)C(C#N)=C(N)Oc2n[nH]c(C)c21 (stereo not drawn)	97
CC(=O)N/N=C/c1ccc(-c2cc(C(F)(F)F)n(C)n2)s1	98
CN(C)c1ccc(C(=S)N2CCNCC2)cc1	96
Cn1c2c(c(=O)[nH]c1=O)C1(O)C(=O)c3ccccc3C1(O)N2 (stereo not drawn)	96
Cc1ccc(S(=O)(=O)NCC(=O)NC2CCCCCC2)cc1	88
COc1ccc(CCN2C(=O)NC(=O)C(CCc3ccncc3)(CCc3ccncc3)C2=O)cc1OC	103

Taken from the entries so far (10 entries):
SMILES	RVFV N-RNA inh
O=C(Sc1ccc(Cl)cc1)c1cnc2n(c1=O)CCS2	90
O=C1N[C@H](C(=O)O)CS1	95
O=c1c(-c2ccccc2)c1-c1ccccc1	94
O=C(CC1CCCC1)NCCS(=O)(=O)N1CCN(c2ccccc2)CC1	99
Cc1cc2c3c(c1)C1(C(=O)N3C(C)(C)CC2C)C(C#N)=C(N)Oc2n[nH]c(C)c21 (stereo not drawn)	97
CC(=O)N/N=C/c1ccc(-c2cc(C(F)(F)F)n(C)n2)s1	98
CN(C)c1ccc(C(=S)N2CCNCC2)cc1	96
Cn1c2c(c(=O)[nH]c1=O)C1(O)C(=O)c3ccccc3C1(O)N2 (stereo not drawn)	96
Cc1ccc(S(=O)(=O)NCC(=O)NC2CCCCCC2)cc1	88
COc1ccc(CCN2C(=O)NC(=O)C(CCc3ccncc3)(CCc3ccncc3)C2=O)cc1OC	103

Rewritten as a markdown table: 4 of the compounds above
| SMILES | RVFV N-RNA inh |
| --- | --- |
| COc1ccc(CCN2C(=O)NC(=O)C(CCc3ccncc3)(CCc3ccncc3)C2=O)cc1OC | 103 |
| CN[C@H](CC(=O)O)C(=O)O | 95 |
| CCOc1ccc(NC(=O)c2ccc(-n3cnnc3)cc2)cc1 | 82 |
| O=C(CC1CCCC1)NCCS(=O)(=O)N1CCN(c2ccccc2)CC1 | 99 |

Next section.
SMILES	RVFV N-RNA inh
CNc1ccnc(C(=O)O)c1	97
O=C1CCCC(O)=C1C=Nc1ccc(N=CC2=C(O)CCCC2=O)cc1	95
O=C(O)c1ccc(/C=c2/sc3nc4ccccc4n3c2=O)cc1	100
CC(C)COC(=O)Nc1cccc2ccccc12	97
NC(=O)CN(c1ccccc1)S(=O)(=O)c1ccc(F)cc1	93
CSc1ccc(C=C2C(=O)OC(C)(C)OC2=O)s1	97
FC(F)(F)c1cccc(N2CCNCC2)c1	98
CC(O)c1ccc(C(C)O)cc1 (stereo not drawn)	94
NS(=O)(=O)c1ccc(NNC(=O)c2c(F)cccc2Cl)cc1	96
CCN1CCN(Cc2ccc3c(c2)Cc2ccccc2-3)CC1	90
CCOC(=O)Cc1c(Cl)c2ccccc2[nH]c1=O	88
CNc1ncnc2c1ncn2[C@@H]1O[C@H](CO)[C@H](O)C1O (stereo partly drawn)	98
Cc1nc2ccc(C(=O)OCc3ccccc3)cc2nc1C	92
N#Cc1c(N(S(=O)(=O)c2ccccc2)S(=O)(=O)c2ccccc2)sc2c1CCCC2	95
O=C(NCCO)c1cc2cc(Cl)ccc2o1	93
c1ccc(CC2CCN(Cc3ccncc3)CC2)cc1	100
C[C@]12Cc3cn[nH]c3C[C@@H]1CC[C@@H]1[C@@H]2CC[C@@]2(C)[C@H]1CC[C@]2(C)O	82&95
C=CCN(CC=C)C(=O)Cc1ccc(C)cc1	101
Cc1cc(NC(=O)Nc2ccc3c(ccn3C)c2)sn1	92
Cc1cc(C)c2c(CC(=O)NC3CC(C)(C)NC(C)(C)C3)coc2c1	101
C=C(C)C1CC=C(CNc2ccc3c(c2)OCO3)CC1 (stereo not drawn)	87
CSc1nc(N)nc(SCCS(=O)(=O)c2ccc(Cl)cc2)c1C#N	96
CC(C)(C)CC(=O)Nc1cccc(F)c1	117
CCCCn1nnc(NC(=O)c2cccc(F)c2)n1	102
O=c1c2c([nH]c3ccccc13)CCCC2	91
CCN1C(=O)/C(=C2/Sc3ccc(OC)cc3N2C)OC1=S	90
CCN(CC(=O)Nc1ccccc1)S(=O)(=O)c1ccccc1	97
COc1ccccc1CC(=O)N(C(C)C)C(C)C	95
CC(C)N(CCC#N)C(=O)Nc1ccc(F)cc1	98
CN(C)c1cc(NC(=O)CNC(C)(C)C)c(O)c2c1C[C@H]1C[C@@H]3C(C(=O)C(C(N)=O)=C(O)[C@H]3N(C)C)C(=O)C1=C2O (stereo partly drawn)	93
CCCSc1nnc(Cn2c(=O)sc3ccccc32)n1-c1ccccc1C	98
CN1C(=O)C(=C2C=C(c3ccccc3)N(Cc3ccco3)C3=C2CCCC3)C(=O)N(C)C1=O	98
CCn1c(=NC(=O)c2ccc(C#N)cc2)sc2cccc(F)c21	101
Clc1ccc(Nc2nnc(Cc3ccncc3)c3ccccc23)cc1	88
CCCCC(=O)N(Cc1ccc(-c2ccccc2-c2nn[nH]n2)cc1)[C@H](C(=O)O)C(C)C	95
O=C(Nc1cccc(NC(=O)C2CC3CCCC(C2)C3=O)n1)C1CC2CCCC(C1)C2=O (stereo not drawn)	96
COc1ccc(NC(=O)c2snnc2C)cc1	102
CN(C)CCN1C(=O)c2ccccc2N(C)c2ccccc21	93
O=C(O)/C=C\C(=O)NC1CCN(Cc2ccccc2)CC1	98
Cc1oc(-c2ccc(Cl)cc2)cc1C(=O)Nc1ccccc1	98
O=C(O)CNC(=O)c1ccc(N2C(=O)c3ccccc3C2=O)cc1	92
S=c1[nH]c(=S)c2cnc(N3CCN(c4ccccc4)CC3)nc2[nH]1	90
NC(=NC(=O)c1ccc(OCC(F)(F)F)nc1)c1ccc(Cl)cc1	97
O=C(CSCc1ccccc1)NC1CC2CCC1C2 (stereo not drawn)	88
O=c1[nH]c2c(s1)C=Nc1cc3ccccc3cc1N2	59
N#CC(c1ccccc1)c1cn2cc(Cl)ccc2n1 (stereo not drawn)	97
O=C(Oc1ccc2c(c1)CCCC2)c1cccs1	99
CCOC(=O)C1=C(Nc2ccc(Cl)cc2)C(=O)N(C(C)(C)C)C1	95
COCCN1C(c2ccccc2)=CC(=C2C(=O)N(C)C(=O)N(C)C2=O)C2=C1CCCC2	103
c1ccc(Nc2nnc(CSc3nc4ccccc4s3)s2)cc1	95
COCCNC(=O)c1cc2ccccc2oc1=O	95
CC/S(=N\S(=O)(=O)c1ccc(C)cc1)c1ccccc1 (stereo not drawn)	94
COc1ccc(C2(C(=O)NC(C)(C)C)CCCC2)cc1	97
N/C(=N/OC(=O)Nc1ccccc1)C1COc2ccccc2O1 (stereo not drawn)	97
O=c1ccc2cc3c([nH]c4ccc(Br)cc43)oc-2c1O	85
CC1CC2C3CCC4=CC(=O)C=CC4(C)C3(F)C(O)CC2(C)C1(O)C(=O)CO (stereo not drawn)	92
Cc1ccc2nc(SCC(=O)N3CCCc4ccccc43)nc(=O)n2c1	90
CC(Oc1ccccc1)c1nc2ccccc2n1C (stereo not drawn)	85
OC1CCCN(Cc2ccc(Br)cc2)C1 (stereo not drawn)	89
O=C(CN1C(=O)c2ccccc2C1=O)NCc1ccccc1	96
Carrying on.
SMILES	RVFV N-RNA inh
COc1ccc(/C=N/NC(=O)Cn2ccnc2C)cc1	94
COc1ccc(-c2nsc(SCC(=O)N3CCCCC3)n2)cc1	99
COC(=O)c1ccc2c(=O)n(NC(=O)C3CC3)c(=S)[nH]c2c1	103
O=C(CSc1nc(-c2ccccc2)cc(=O)[nH]1)Nc1ccccc1	88
CC1(C)CC(=O)C(C=NCC(N)=O)=C(O)C1	90
CCCN1CC2=C(NC(=S)NC2c2ccc(N(C)C)cc2)/C(=C/c2ccc(N(C)C)cc2)C1 (stereo not drawn)	96
CN(C)C(=O)C(CCN1CCC(O)(c2ccc(Cl)cc2)CC1)(c1ccccc1)c1ccccc1	97&97&101
C#CC(C)(C)NC(=O)c1snnc1C	91
CCCSc1ccc2nc(NC(=O)OC)[nH]c2c1	98&105
C=CCn1c(N)cc(=O)nc1SC(C)C(=O)Nc1cccc(Cl)c1 (stereo not drawn)	96
C/C(=C\C(=O)NC1CC(C)(C)NC(C)(C)C1)NC1CC(C)(C)NC(C)(C)C1	97

Pulled by compound from the list above, 2 records:
SMILES	RVFV N-RNA inh
COC(=O)c1cc2c(ccc3ccccc32)oc1=O	95
O=C(Nc1ccccc1)Nc1ccc(OC(F)F)cc1	96
